miR-21 reporter: miR-21 reporter, rising signal. HeLa miR-21 FLuc reporter, luciferase, 48 h. Potency, µM (doses to about 38.3 µM), for the others: at the highest dose reporter change, positive = more light. 340,000 tested, under 10 active. AID 2288; active = well fitted rising curve with a large enough effect; inconclusive = small, poorly fitted or top-dose-only effect; inactive = no such curve, though single readings can be large or run the other way;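 further: % of control where 0% means no effect; miR-21 action dims this reporter so a rising signal means less miR-21 action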
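Compounds were titrated across several concentrations (up to approximately 40 uM) and incubated 48 hours with HeLa miR-21-FLuc reporter cells (miR-21 target sequence downstream of FLuc, endogenous miR-21). Readout was firefly luciferase luminescence after lytic detection reagent.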
Rango-impB inh: prevents formation of the Rango-importin beta complex; Rango CFP/YFP FRET sensor + importin beta, 45 min; Potency, µM (doses to about 92.2 µM), for inactives: at the top dose inhibition of complex formation; 340,000 compounds, 0.031% hits; AID 540263; active = rising FRET ratio curve, often small or poorly fitted; inconclusive = mostly compound fluorescence or quenching in the first reads; inactive = flat curves in all reads;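 further: potency means the concentration at half of the fitted maximal effect; 0% = DMSO wells and 100% = buffer wells lacking importin beta; nearly all actives have a fitted effect of over 15% in size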
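FRET biosensor (snurportin 1 IBB flanked by EYFP and cerulean), 50 nM, with compound 5 min, then 0.125 microM importin beta in PBS, 1 mM DTT, 0.02% Tween-20, 0.1% BSA. CFP/YFP ratio read after 45 min at room temperature; pre-read flags interference.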
Rango dissoc inh: inhibition of RanGTP-driven Rango-importin beta dissociation. O95149+P62826. Biochemical FRET Rango-importin beta, RanGTP-induced dissociation. Potency, µM (titrated, usually from 46.1 µM), for inactives: at the top dose activity change, negative = inhibition. 340,000 compounds, 0.071% hits. AID 540253; active means falling FRET ratio curve, often poorly fitted, with flat reads before Ran was added; inconclusive means other falling curves, or compound fluorescence or quenching; inactive means flat or rising ratio curve;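 further: potency means the concentration at half of the fitted maximal effect; % of control where 0% means no effect; nearly all actives have a fitted effect of over 45% in size; -100% = wells without RanGTP and RCC1; the record marks most hits as doubtful in a second field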
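Rango (0.1 uM)–importin beta (0.25 uM) complex; RanGTP-RCC1 trigger; 45 min RT; CFP/YFP FRET read.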
GLA inh pH 4.5: inhibitors of human alpha-galactosidase A at pH 4.5; activity change, negative = inhibition, % at 105 µM; P06280; 230,000 tested, under 10 active; purified enzyme, 4-MU-alpha-Gal fluorescence, pH 4.5; inconclusive = small, poorly fitted or top-dose-only inhibition, or a rising curve; inactive = flat fitted curve, though single readings scatter; no compound was filed as active;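 further: 0% = full activity with enzyme and -100% = basal without enzyme; dose as in the result columns while the protocol names 77 µM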
Target sequence (P06280 whole entry, looked up): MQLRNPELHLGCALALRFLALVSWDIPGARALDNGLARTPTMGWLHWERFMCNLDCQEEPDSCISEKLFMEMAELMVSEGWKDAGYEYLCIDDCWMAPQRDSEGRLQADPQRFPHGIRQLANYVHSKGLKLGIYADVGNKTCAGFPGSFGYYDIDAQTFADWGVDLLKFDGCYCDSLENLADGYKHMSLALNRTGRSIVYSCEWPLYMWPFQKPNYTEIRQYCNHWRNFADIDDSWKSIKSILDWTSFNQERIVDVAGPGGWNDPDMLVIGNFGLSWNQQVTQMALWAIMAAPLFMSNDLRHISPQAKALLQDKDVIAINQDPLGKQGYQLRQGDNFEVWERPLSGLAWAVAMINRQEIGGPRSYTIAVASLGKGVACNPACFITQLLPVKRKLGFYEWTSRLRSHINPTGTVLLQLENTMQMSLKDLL
Starred values were filed as active, the others as inactive. These rows are one share of the data, so the mix of outcomes need not match the whole.

Cc1cc(NC(=O)Nc2ccccc2)n(-c2ccccc2)n1 was read as miR-21 reporter -18%, Rango-impB inh -1.9%, Rango dissoc inh 12% and GLA inh pH 4.5 16.
`CCc1ccc(NC(=O)C(=O)NCCN2CCN(S(=O)(=O)c3ccccc3)CC2)cc1` gave miR-21 reporter -1%, Rango-impB inh 0.4% and Rango dissoc inh 6%.
Screening COc1ccccc1NS(=O)(=O)c1cc(C(=O)NCC2CCCO2)ccc1C (centres undefined) returned Rango-impB inh -2.0% and Rango dissoc inh -4%.
Cc1ccc(C(=O)c2ccccc2C(=O)OCC(=O)Nc2ccc(SC(F)F)cc2)cc1 was read as miR-21 reporter 9%, Rango-impB inh inconclusive, Rango dissoc inh 18% and GLA inh pH 4.5 -1.
COc1ccc(-n2cc(-c3ccccc3)[nH]c2=S)cc1 was read as miR-21 reporter -28%, Rango-impB inh 8.0%, Rango dissoc inh -9% and GLA inh pH 4.5 4.
`O=C(NS(=O)(=O)c1ccccc1)c1ccccc1F` gave miR-21 reporter -5%, Rango-impB inh -2.3%, Rango dissoc inh 9% and GLA inh pH 4.5 3.
Screening CCC(C)c1ccc(NC(=O)CN(C)CC(=O)Nc2cccc(OC)c2)cc1 (centres undefined) returned miR-21 reporter 0%, Rango-impB inh 6.6%, Rango dissoc inh 1% and GLA inh pH 4.5 -30.
`CCOC(=O)c1ccccc1NC(=O)C1CSC2(C)CCC(=O)N12` (centres undefined) gave miR-21 reporter 2%, Rango-impB inh -3.6% and Rango dissoc inh 1%.
Screening COc1cc(CCCN2CCNC[C@@H]2c2ccccc2)cc(OC)c1OC returned Rango-impB inh 0.6% and Rango dissoc inh 21%.
Screening CCOC(=O)n1c(=O)n(Cc2cccc(C)c2)c2ccccc21 returned miR-21 reporter -23%, Rango-impB inh 0.0%, Rango dissoc inh -12% and GLA inh pH 4.5 -9.
`COc1ccc(Cn2c(-c3ccco3)nc3oc4ccccc4c(=O)c3c2=O)cc1` gave miR-21 reporter -1%, Rango-impB inh 1.6%, Rango dissoc inh -13% and GLA inh pH 4.5 -3.
Screening N#C[C@@H]1N(Cc2ccccc2)C(=O)[C@H]2CC3C=CC21O3 (some centres undefined) returned Rango-impB inh 0.5% and Rango dissoc inh -4%.
For Cc1cc(NCCO)nc(-n2nc(C)cc2C)n1 the results were miR-21 reporter -1%, Rango-impB inh 2.7%, Rango dissoc inh -3% and GLA inh pH 4.5 -6.
Screening COc1ccc(NC2SC(=O)N(CC(=O)O)C2=O)cc1 (centres undefined) returned miR-21 reporter -11%, Rango-impB inh -2.0%, Rango dissoc inh 18% and GLA inh pH 4.5 3.
Cc1[nH][nH]c(=O)c1C(c1ccc(-c2cccc(C(=O)O)c2)o1)c1c(C)[nH][nH]c1=O was read as miR-21 reporter -22%, Rango-impB inh 1.4%, Rango dissoc inh inconclusive and GLA inh pH 4.5 5.
For CC(NC(=O)c1cc(S(=O)(=O)N2CCOCC2)cn1C)c1ccccc1 (centres undefined) the results were miR-21 reporter 0%, Rango-impB inh 0.9% and Rango dissoc inh 12%.
`Cc1cc(C)n(S(=O)(=O)c2ccc3ccccc3c2)n1` gave miR-21 reporter -5%, Rango-impB inh 0.2%, Rango dissoc inh -6% and GLA inh pH 4.5 -2.
For CC1CC1C(=O)OCC(=O)Nc1ncc(Cl)cc1Cl (centres undefined) the results were Rango-impB inh -2.9% and Rango dissoc inh 10%.
`CC(C)Cc1nc(C#N)c(N2CCC(C(N)=O)CC2)o1` gave miR-21 reporter -2%, Rango-impB inh 2.7%, Rango dissoc inh 21% and GLA inh pH 4.5 5.
`O=C(COC(=O)c1cccc(S(=O)(=O)N2CCOCC2)c1)Nc1ncc(Cl)cc1Cl` gave Rango-impB inh -10% and Rango dissoc inh 20%.

Next section, overlapping the part above by four compounds.
`Cc1cc(C)n(S(=O)(=O)c2ccc3ccccc3c2)n1` gave miR-21 reporter -5%, Rango-impB inh 0.2%, Rango dissoc inh -6% and GLA inh pH 4.5 -2.
For CC1CC1C(=O)OCC(=O)Nc1ncc(Cl)cc1Cl (centres undefined) the results were Rango-impB inh -2.9% and Rango dissoc inh 10%.
`CC(C)Cc1nc(C#N)c(N2CCC(C(N)=O)CC2)o1` gave miR-21 reporter -2%, Rango-impB inh 2.7%, Rango dissoc inh 21% and GLA inh pH 4.5 5.
`O=C(COC(=O)c1cccc(S(=O)(=O)N2CCOCC2)c1)Nc1ncc(Cl)cc1Cl` gave Rango-impB inh -10% and Rango dissoc inh 20%.
O=C(Cc1nc2ccccc2[nH]1)c1ccc([N+](=O)[O-])cc1 was read as miR-21 reporter -44%, Rango-impB inh inconclusive, Rango dissoc inh inconclusive and GLA inh pH 4.5 -12.
Screening CCOc1ccc(N(CC(=O)Nc2cccc(C)c2)S(C)(=O)=O)cc1 returned miR-21 reporter -39%, Rango-impB inh -3.4% and Rango dissoc inh 3%.
[O-]c1n[n+](-c2ccc(Cl)cc2)cc2ccccc12 was read as miR-21 reporter -9%, Rango-impB inh -2.9%, Rango dissoc inh -4% and GLA inh pH 4.5 -2.
O=C(C[n+]1cccc(CNC(=O)c2ccc(OC(F)F)cc2)c1)c1ccccc1 was read as miR-21 reporter -1%, Rango-impB inh 0.0%, Rango dissoc inh -5% and GLA inh pH 4.5 7.
Screening O=C(O)c1cccc(C(=O)O)c1Br returned miR-21 reporter 2%, Rango-impB inh 7.4% and Rango dissoc inh -1%.
Screening Cc1ccc(OCC(=O)Oc2ccccc2[N+](=O)[O-])cc1 returned Rango-impB inh 2.1% and Rango dissoc inh -8%.
Screening COc1ccc(C(=O)NNC(=O)C(=O)Nc2ccc(C)c(Cl)c2)cc1 returned miR-21 reporter 0%, Rango-impB inh 0.6%, Rango dissoc inh 13% and GLA inh pH 4.5 -8.
Screening CCOc1ccc(NC(=O)COc2coc(CN3CCc4ccccc4C3)cc2=O)cc1 returned Rango-impB inh 0.0% and Rango dissoc inh -4%.
Screening O=Cc1ccc(OC(=O)C2CC(=O)N(c3ccc(F)cc3)C2)cc1 (centres undefined) returned miR-21 reporter 3%, Rango-impB inh -1.1%, Rango dissoc inh 0% and GLA inh pH 4.5 5.
`O=[N+]([O-])c1ccc(Nc2ccccc2F)nc1` gave miR-21 reporter -2%, Rango-impB inh inconclusive, Rango dissoc inh -25% and GLA inh pH 4.5 -2.
Screening CCc1ccccc1NC(=O)C1CCCC1 returned Rango-impB inh -3.9% and Rango dissoc inh -19%.
`CC(=O)Nc1ccc(S(=O)(=O)N[C@@H](C)C(=O)OCC(=O)c2ccc(C)cc2)cc1` gave Rango-impB inh 2.0% and Rango dissoc inh -10%.
`O=C1c2ccccc2C(=O)N1CC(O)COc1ccccc1Cl` (centres undefined) gave miR-21 reporter -23%, Rango-impB inh 1.3% and Rango dissoc inh -14%.
`CCN1CCCc2cc(CN(CCN3CCOCC3)C(=S)Nc3ccc(OC)cc3)ccc21` gave miR-21 reporter 0%, Rango-impB inh 2.2%, Rango dissoc inh -2% and GLA inh pH 4.5 -2.
CC(=O)c1ccc(NC(=S)NCc2ccco2)cc1 was read as miR-21 reporter -24%, Rango-impB inh -1.2%, Rango dissoc inh -3% and GLA inh pH 4.5 11.
`CN(C)CCN(C(=O)c1ccc(Br)s1)c1nc2cc3c(cc2s1)OCCO3` gave miR-21 reporter -34%, Rango-impB inh 1.9%, Rango dissoc inh 8% and GLA inh pH 4.5 3.
C/C(=C/c1ccccc1)C(=O)N1CCN(c2ccc(F)cc2)CC1 was read as miR-21 reporter -3%, Rango-impB inh 2.1% and Rango dissoc inh 13%.
Screening CC(C)(C)n1ncc2c(=O)n(Cc3cccc(Cl)c3)cnc21 returned miR-21 reporter -16%, Rango-impB inh 0.5%, Rango dissoc inh 16% and GLA inh pH 4.5 -1.
Cc1ccccc1-c1nnc(-c2cccs2)o1 was read as miR-21 reporter -65%, Rango-impB inh 3.1%, Rango dissoc inh 34% and GLA inh pH 4.5 0.
Screening Clc1cccc(Cl)c1COn1nnc2ccccc21 returned miR-21 reporter -13%, Rango-impB inh -0.5%, Rango dissoc inh 1% and GLA inh pH 4.5 -2.
O=S1(=O)C=C(Sc2nnc(-c3ccccc3)o2)c2ccccc21 was read as miR-21 reporter inconclusive, Rango-impB inh inconclusive, Rango dissoc inh 10% and GLA inh pH 4.5 0.
For CCOC(=O)c1cnc2nc(Cc3ccccc3)[nH]n2c1=O the results were miR-21 reporter 2%, Rango-impB inh -0.9%, Rango dissoc inh 9% and GLA inh pH 4.5 1.
Cn1c(=O)c2c(nc(SCc3ccc(F)cc3)n2C)n(C)c1=O was read as miR-21 reporter 3%, Rango-impB inh 1.9% and Rango dissoc inh -6%.
`Cc1csc(=O)n1CC(=O)OC(C)C(=O)Nc1ccc(N(C)C)cc1` (centres undefined) gave Rango-impB inh -0.2% and Rango dissoc inh -10%.
For CN(Cc1ccccc1)C(=O)CCS(=O)(=O)c1ccc2c(c1)n(C)c(=O)c(=O)n2C the results were miR-21 reporter -6%, Rango-impB inh 5.2%, Rango dissoc inh 34% and GLA inh pH 4.5 14.
Screening C[C@H](CO)N1C[C@H](C)[C@@H](CN(C)C(=O)Nc2ccc3c(c2)OCO3)Oc2c(cccc2N(C)C)C1=O returned Rango-impB inh -3.9% and Rango dissoc inh 12%.
CC(C(=O)NCC1CCCCC1)N(C)CC(=O)Nc1ccc(N2CCOCC2)cc1 (centres undefined) was read as miR-21 reporter 1%, Rango-impB inh -2.4%, Rango dissoc inh -8% and GLA inh pH 4.5 6.
`Cc1ccc(S(=O)(=O)N(C)C)cc1NC(=O)COC(=O)c1ccc2c(c1)OCO2` gave miR-21 reporter -6%, Rango-impB inh 0.0%, Rango dissoc inh -24% and GLA inh pH 4.5 4.
`COc1ccc(-c2ccnc3c(C#N)cnn23)cc1` gave miR-21 reporter -2%, Rango-impB inh 7.9%, Rango dissoc inh 24% and GLA inh pH 4.5 3.
CC(Sc1ccsc1[N+](=O)[O-])C(=O)NCCc1ccc(Cl)cc1 (centres undefined) was read as miR-21 reporter 7%, Rango-impB inh -1.6%, Rango dissoc inh -1% and GLA inh pH 4.5 2.
`O=C(NNC(=O)c1ccncc1)Nc1cccc(C(F)(F)F)c1` gave miR-21 reporter 2%, Rango-impB inh 0.6% and Rango dissoc inh -1%.
`COc1ccc(NC(=O)CSc2nc3c(cc2C#N)CN(C)CC3)cc1` gave miR-21 reporter -9%, Rango-impB inh inconclusive, Rango dissoc inh inconclusive and GLA inh pH 4.5 6.
Screening COc1cccc(CNc2ccc(F)c([N+](=O)[O-])c2)c1O returned miR-21 reporter -18%, Rango-impB inh 3.0%, Rango dissoc inh -10% and GLA inh pH 4.5 -2.
`Cc1cccc(NC(=O)c2cccc(N3C(=O)C4C5CCC(C5)C4C3=O)c2)c1C` (centres undefined) gave miR-21 reporter -9%, Rango-impB inh 1.1%, Rango dissoc inh -8% and GLA inh pH 4.5 -27.
COc1ccc(Cn2c(CCC(=O)NCc3ccco3)nc3cccnc32)cc1 was read as miR-21 reporter -5%, Rango-impB inh -0.9%, Rango dissoc inh -4% and GLA inh pH 4.5 -1.
CCOC(=O)c1c(C)c(C(=O)NCc2ccccc2OC)c(C)n1C was read as miR-21 reporter -17%, Rango-impB inh inconclusive, Rango dissoc inh -6% and GLA inh pH 4.5 -6.
Screening O=C(Nc1ccccc1)N1CCc2ccccc2C1 returned miR-21 reporter -21%, Rango-impB inh inconclusive, Rango dissoc inh inconclusive and GLA inh pH 4.5 -3.
For Cc1ccc(NC(=O)CCN2CCN(CCO)CC2)cc1Br the results were miR-21 reporter -1%, Rango-impB inh -3.9%, Rango dissoc inh -1% and GLA inh pH 4.5 0.
Screening CC(C)CC(=NNC(=O)c1ccncc1)c1cc(Cl)ccc1O returned Rango-impB inh inconclusive and Rango dissoc inh inconclusive.
For Cc1ccc(CCN=c2c([N+](=O)[O-])nn(-c3ccccc3)n2O)cc1 the results were miR-21 reporter -9%, Rango-impB inh 6.2%, Rango dissoc inh 1% and GLA inh pH 4.5 -2.
`CC(C)C(=O)Nc1ccc2c(c1)nc(CCN1CCN(C)CC1)n2C` gave miR-21 reporter 0%, Rango-impB inh 3.0%, Rango dissoc inh 8% and GLA inh pH 4.5 -1.
O=C1NC2(O)C(=O)c3ccccc3C2(O)N1 (centres undefined) was read as miR-21 reporter -1%, Rango-impB inh -0.3%, Rango dissoc inh -12% and GLA inh pH 4.5 -2.
